# High-throughput results (PubChem)
# Beta apoptosis: inhibitors of cytokine-induced beta cell apoptosis, primary screen, luminescence. INS-1E cytokine-induced death, ATP luminescence, 48 h; percent of positive-control rescue, neutral wells zero. protection from apoptosis, % (test concentration not listed). 0.8% of 300,000 active. AID 435005, 2010;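 active means all replicates at 75% or more, or half of them and the mean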;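 further: 0% = cytokine-treated negative control wells and 100% = positive control rescue; higher means more ATP so stronger rescue from cytokine killing; wells of about 40 µL received 100 nL stock; the first replicate is given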
# T cruzi repl: inhibitors of intracellular T. cruzi growth, primary screen, luminescence, NIH3T3 host cells; T. cruzi beta-gal in NIH3T3, 90 h; inhibition, % (test concentration not listed); 1.4% of 300,000 active;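 active means mean inhibition across valid replicates above about 55%, limit read from the data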;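 further: signal also drops with host cell toxicity which is not excluded here; 0% = plate median of DMSO wells and 100% = zero luminescence signal; higher percent means less beta-gal luminescence so fewer parasites; stock transfer was 50 nL into about 50 µL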
# FGF22 binding: binders of human FGF22 protein, primary screen, FGF22 synaptogenesis inhibitor project, biophysical, thermal shift, single point. calls only at 9.99 µM. AID 651658, 2012. Fibroblast growth factor 22 (Homo sapiens), Q9HCT0. recombinant FGF22 thermal shift, SYPRO orange fluorescence; percent of sucrose octasulfate shift, DMSO zero. 1.5% of 340,000 active;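 active means melting point raised past a set limit in the mean and every replicate; three in four hits are not shown here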
# Ecoli growth: E. coli growth inhibition, primary screen, OD600; Escherichia coli growth, 23 h; hits give low values; OD600 absorbance (concentration not given with the values); 0.21% of 330,000 active;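 active means OD600 absorbance below the run mean of sample wells minus 3.6 SD, in any replicate, cut at about 0.56 in these data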;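 further: stock transfer was 300 nL into about 60 µL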
# UCH37 inh: inhibitors of human UCH37 deubiquitinase, primary screen, biochemical, Ub-AMC cleavage, fluorescence; inhibition, % (test concentration not listed); Ubiquitin carboxyl-terminal hydrolase isozyme L5 (Homo sapiens), Q9Y5K5; purified proteasome/UCH37; 0.33% of 330,000 active; AID 588478, 2011;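 active means mean of two replicates above 20%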;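 further: 0% = compound-free wells with enzyme and 100% = wells lacking proteasome; stock transfer was 100 nL into about 20 µL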
# Target sequence (Q9Y5K5 whole entry, looked up): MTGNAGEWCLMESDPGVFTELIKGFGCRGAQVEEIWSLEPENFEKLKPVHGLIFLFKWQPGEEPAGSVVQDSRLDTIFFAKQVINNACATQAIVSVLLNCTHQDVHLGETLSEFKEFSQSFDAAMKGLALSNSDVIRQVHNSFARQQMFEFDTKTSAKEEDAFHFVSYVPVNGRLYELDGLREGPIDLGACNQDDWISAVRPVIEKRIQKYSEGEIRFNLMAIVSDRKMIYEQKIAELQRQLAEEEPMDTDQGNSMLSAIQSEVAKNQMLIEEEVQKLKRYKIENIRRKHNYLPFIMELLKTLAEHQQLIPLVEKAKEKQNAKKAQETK
#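 Reagent: Ub-AMC substrate; assay system: Proteasome-associated human UCH37 deubiquitinase; controls: no-proteasome and no-compound wells; read-out: % inhibition of Ub-AMC cleavage fluorescence; timing: 30 min preincubation with enzyme, 25 min cleavage at room temperature; signal: AMC fluorescence from Ub-AMC cleavage, excitation 355 nm, emission 460 nm; buffer or medium: Tris-HCl pH 7.4 plus ovalbumin, ATP-MgCl2, DTT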
# Ecoli rRNA inh: reduced GFP signal of wild-type E. coli, primary screen, bacterial rRNA inhibitor project, GFP/RFP fluorescence, OD600, single point | 1.6% of 350,000 active | E. coli WT GFP vs humanized-ribosome RFP mutants, 24 h; hits give low values; DMSO median 0, no signal -100 | AID 720706, 2013 | GFP signal change (wild-type ribosome), % (test concentration not listed);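 active means significant combined selectivity score with lowered wild-type GFP, culture density cut under 30%, mutant RFP and density less affected; inactive means any of these conditions unmet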; further: one replicate is shown; some compounds called inactive have numbers as strong as hits
# MLL AF4-AF9 inh: inhibitors of AF4 peptide binding to AF9, primary screen, biochemical, AlphaScreen, biotin-AF4 peptide, FLAG-AF9, single point. Protein AF-9 (Homo sapiens), P42568. inhibition, % at 10 µM. 0.47% of 350,000 active. AID 651704, 2012;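 active means every replicate reaching a set inhibition limit, whatever the replicate mean, cut at about 25% in these data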;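 further: 0% = plate neutral control median and 100% = total signal loss; the record names both 10 and 1 µM as test concentration; the first replicate is given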
# Target sequence (P42568 whole entry, looked up): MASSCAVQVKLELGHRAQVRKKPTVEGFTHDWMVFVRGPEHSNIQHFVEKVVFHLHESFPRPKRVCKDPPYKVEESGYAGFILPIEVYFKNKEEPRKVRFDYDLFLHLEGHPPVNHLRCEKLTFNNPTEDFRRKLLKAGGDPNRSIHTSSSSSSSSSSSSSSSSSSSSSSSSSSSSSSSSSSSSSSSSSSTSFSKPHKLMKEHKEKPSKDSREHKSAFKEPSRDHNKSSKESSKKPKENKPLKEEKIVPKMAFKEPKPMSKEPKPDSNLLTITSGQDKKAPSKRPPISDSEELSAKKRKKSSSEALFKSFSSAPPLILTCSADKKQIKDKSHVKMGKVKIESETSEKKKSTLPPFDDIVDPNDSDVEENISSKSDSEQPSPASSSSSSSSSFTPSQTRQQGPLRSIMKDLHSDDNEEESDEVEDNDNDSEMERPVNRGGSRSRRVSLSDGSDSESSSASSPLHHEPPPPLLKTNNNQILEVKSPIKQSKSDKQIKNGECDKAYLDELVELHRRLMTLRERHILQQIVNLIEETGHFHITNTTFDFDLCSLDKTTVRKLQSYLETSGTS
# Bfl-1 A1 inh: caspase 3/7 activation in MEF A1-2A-BIM cells, primary screen, A1 inhibitor project, cell-based, luminescence, HTS. Caspase-Glo 3/7 luminescence, 3 h; percent of clofoctol response, vehicle zero. caspase activation, % (concentration not given with the values). 0.066% of 330,000 active;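 active means over half of replicate activation scores above 10%, or exactly half above 10 with the replicate mean above 10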;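 further: wells of about 30 µL received 50 nL stock; many hits fall short of the cut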
# Ecoli rRNA inh OD600: further read-out of Ecoli rRNA inh, marked with its call; OD600 change, %; measured here: OD600 growth;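 optical density of the mix in the first replicate; 0 = DMSO median and -100 = no signal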
# Ecoli rRNA inh RFP: further read-out of Ecoli rRNA inh, marked with its call; RFP signal change, %; measured here: RFP humanized mutant strains;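 first replicate; 0 = DMSO median and -100 = no signal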
# Active calls of the source: *; i = inactive; . = no result given.
SMILES,Beta apoptosis,T cruzi repl,FGF22 binding,Ecoli growth,UCH37 inh,Ecoli rRNA inh,Ecoli rRNA inh OD600,Ecoli rRNA inh RFP,MLL AF4-AF9 inh,Bfl-1 A1 inh
Cn1c(CCNC(=O)c2ccccc2F)nnc1SCc1nc2ccccc2c(=O)[nH]1,1,-5,i,0.69,2.7,4,-13,-0.9,-25,0.6
CCCCn1nnc(NC(=O)Cc2ccc(Cl)cc2)n1,-4,4,.,0.69,3.4,.,.,.,.,0.0
COc1ccc2cc(CN(C(=O)Nc3ccccc3OC)C3CCCC3)c(=O)[nH]c2c1,-5,3,.,0.69,0.1,.,.,.,.,0.3
CCN1CCc2c(sc(NC(=O)C3CCCCC3)c2C(=O)OC)C1,0,21,i,0.68,1.2,-8,-8,0.6,-5.7,0.2
Cc1cc(C)n(CC(=O)NCc2ccccc2)c(=O)c1C#N,-3,-12,i,0.67,-2.3,18,6,0.5,-3.4,-0.2
O=C(O)CCN1C(=O)c2ccc(NC(=O)Cc3ccc(Cl)cc3)cc2C1=O,-4,-6,i,0.68,-497,1,1,1.8,-2.5,1.5
COc1ccccc1NC(=O)Cc1nnc(SCC(=O)NC2CCCCC2C)n1C (centres undefined),-3,-4,i,0.71,3.3,12,14,4.2,-20,1.0
CC(CN(C)Cc1nc(Cc2cccc(C(F)(F)F)c2)no1)CN1CCCC1 (centres undefined),9,19,i,0.59,-2.4,4,-2,-0.3,12,0.1
Cc1csc2nc(CNS(=O)(=O)c3ccc4c(c3)CCCC4)cn12,0,-5,i,0.71,2.3,-6,11,2.0,13,-0.5
Cc1ccc(C)n1-c1ncn[nH]1,-5,-1,.,0.74,2.7,.,.,.,.,-0.7
CC1CN(c2ccccc2)CCN1Cc1nc(Cc2ccccc2)no1 (centres undefined),-2,15,i,0.68,-0.3,-4,-6,3.5,-1.4,0.8
CCCC[C@@H]1CNCCN1CCCc1cc(OC)c(OC)c(OC)c1,1,33,i,.,2.6,1,-1,0.2,3.1,2.4
COc1ccccc1NC(=O)Oc1ccc(C(C)=O)cc1,7,3,.,0.7,5.7,.,.,.,.,2.2
CCCc1nc2sc3c(SCC(=O)NCc4ccco4)ncnc3c2c2c1CCC2,-3,.,.,0.77,-4.4,.,.,.,.,-1.1
COc1ccc(N2CCOCC2)c(NC(=O)c2cccnc2)c1,-1,0,i,0.71,-2.2,7,7,1.6,-2.0,-1.0
CC(C)N1CC(C(=O)O)CC1=O (centres undefined),6,-10,.,0.71,-0.7,.,.,.,.,0.2
CC(=O)NC1CC2CCCC(C1)N2C(=O)Nc1cccc(C(C)=O)c1 (centres undefined),.,.,i,0.65,1.6,0,1,0.7,-2.7,.
COCCn1c(-c2ccc(C)cc2)nc2c(c(=O)c3ccccc3n2C)c1=O,.,.,i,0.69,4.9,-4,-1,-10,4.8,.
Cc1nn(C)cc1CNC(=O)C1C2CCC(C2)C1C(=O)O (centres undefined),-5,6,i,0.67,-0.1,22,14,0.4,-0.7,0.1
CN(CC(=O)Nc1ccccc1Cl)C(=O)COC(=O)/C=C/c1cccc(C(F)(F)F)c1,1,.,i,0.69,-0.5,7,13,0.1,-1.1,-0.7
CCc1nn(CC(=O)N2CCC(C(N)=O)CC2)c(=O)c2cc3occc3n12,-9,21,i,0.7,0.2,1,1,0.5,-2.5,1.1
Cc1ccc(CN2CCN(Cc3ccccc3)C(CCO)C2)s1 (centres undefined),-1,13,i,0.67,0.1,7,10,-2.8,3.8,0.2
CCCC(=O)Nc1cccc(Oc2ccc3c(c2)C(=O)NC3=O)c1,-4,-9,i,0.66,2.7,-17,-9,2.5,-0.3,-0.2
CSCC[C@H](NC(=O)c1cccc(S(=O)(=O)N2CCCCCC2)c1)c1nc2ccccc2[nH]1,3,.,i,0.68,3.8,-1,-46,-10,5.4,1.7
CCN(CC)CCn1c(=N)n(CC(O)COc2ccccc2)c2ccccc21 (centres undefined),12,-6,i,0.66,4.0,16,12,0.4,0.4,0.3
CC(=O)c1c(C)c2c(n1CCN(C)C)CCCC2,-2,16,.,0.74,5.7,.,.,.,.,1.1
Cc1cc(N)n2nc(-c3ccc(C(C)(C)C)cc3)cc2n1,9,23,.,0.67,-5.4,.,.,.,.,-11
O=C(CSc1nc2ncccc2[nH]1)Nc1c(F)cc(F)cc1Br,-2,-12,i,0.69,4.5,1,7,-2.3,-0.5,1.1
Cc1ccc(C(=O)COC(=O)CNS(=O)(=O)c2ccccc2)cc1[N+](=O)[O-],.,-3,.,0.7,2.5,.,.,.,.,-0.3
COc1ccc(S(=O)(=O)NCCSCc2ccccc2C)cc1Br,1,17,.,0.64,2.2,.,.,.,.,-0.6
COC(=O)c1c(C)[nH]c(C(=O)/C=C/c2ccccc2)c1C,1,5,.,0.74,-20,.,.,.,.,-0.3
COC(=O)c1ccc(-n2c(C)cc(-c3csc(NC(=O)c4ccc(S(=O)(=O)N(C)C)cc4)n3)c2C)cc1,-2,-3,i,0.72,0.4,4,5,2.5,3.5,0.0
CC(C(=O)NC1CCCC1)N(C(=O)Cn1nnc(-c2ccc(F)cc2)n1)c1ccccc1F (centres undefined),-3,-12,i,0.65,2.2,-6,-15,-7.7,1.0,0.5
COc1ccc(C(C)=O)cc1CSc1nc2ccccc2c(=O)n1-c1cccc(C)c1,24,10,.,0.71,4.8,.,.,.,.,0.4
CCOC(=O)c1cnc2c(C(F)(F)F)cccc2c1N1CCOCC1,-3,-4,.,0.77,5.1,.,.,.,.,0.5
Cc1c(C(=O)NC(=S)NCC(C)C)oc2ccccc12,2,5,i,0.73,0.3,10,11,-0.2,-0.3,-3.7
NCCOc1ccccc1Cc1ccccc1,3,-8,.,0.68,0.9,.,.,.,.,0.3
COC1=C/C(=C/c2c(N)n3nc(CC(=O)N4CCOCC4)sc3nc2=O)C=CC1=O,3,1,i,0.66,17,14,7,1.3,0.0,0.8
CN(c1ccc(OCC(=O)OCC(=O)Nc2ccccc2F)cc1)S(=O)(=O)c1cccs1,-13,-13,i,0.69,2.4,-3,-12,-0.4,1.4,1.3
O=C(CSc1nc2ccc(N3CCOCC3)cc2c(=O)n1CCc1ccccc1)NCC1CCCO1 (centres undefined),-10,17,i,0.71,-31,-7,-10,2.7,-3.1,-0.5
NS(=O)(=O)c1ccc(NC(=O)c2ccc3nccnc3c2)cc1,-16,-4,i,0.67,3.1,18,15,15,-0.7,-0.1
CC(=O)C[C@H](O)CC(=O)[C@H]1OC(=O)CCCCCc2ccccc21,-2,.,i,0.7,1.1,10,7,-2.3,-1.9,1.1
Cc1ccc(C(=O)NC(N(C)C)C(Cl)(Cl)Cl)cc1 (centres undefined),0,-18,i,0.7,-3.5,9,-3,-0.9,1.6,-0.6
COC(=O)c1sccc1-n1cccc1C(=O)C(=O)Nc1ccc(F)cc1,3,-3,i,0.68,5.3,3,12,-3.8,-1.3,-0.7
Nc1ccc(C(=O)NC23CC4CC(CC(C4)C2)C3)cc1,4,8,i,0.65,1.9,-6,-7,3.0,-2.3,0.0
Cc1ccc(C(=O)OCc2cn(-c3ccccc3)nn2)cc1,.,-16,i,0.68,-0.5,-1,-1,-3.5,-2.8,1.1
COc1ccc(NC(=O)NC2(C)CCS(=O)(=O)C2)cc1 (centres undefined),.,-9,.,0.7,1.4,5,10,0.3,-5.6,.
Cc1cc(C)c(S(=O)(=O)c2cccc(C)c2C)c(=O)[nH]1,-6,2,i,0.64,1.6,-5,3,6.5,1.1,0.3
O=C(NNC(=O)c1cc2cc3ccccc3nc2s1)c1cccc(Cl)c1,-2,5,.,0.78,-9.8,.,.,.,.,1.6
CCS(=O)(=O)c1ccc2c(c1)N(S(C)(=O)=O)CC(C(=O)NCCOC)O2 (centres undefined),-7,-14,.,0.68,-0.1,.,.,.,.,-0.1
CSc1nc(N)nc2c1ncn2CC(=O)NCC1CCCO1 (centres undefined),-12,.,i,0.71,3.0,6,18,-3.5,0.1,-0.1
Cc1c(F)cccc1NC(=O)CCCCCC1NC(=O)NC1C (centres undefined),-5,-8,i,0.68,2.2,19,7,1.4,90*,-0.2
CCCc1c(C(=O)Nc2ccc(OC)cc2)cnn1-c1ccccc1,7,9,i,0.64,4.0,-24*,2.2*,2.8*,-1.8,1.7
C/C(=N/NC(=O)c1ccc2c(c1)OCO2)c1cccc([N+](=O)[O-])c1,-3,3,i,.,.,14,12,-1.6,-1.6,-0.9
CC(C)(C)OC(=O)CNC(=O)c1[nH]cnc1C(=O)Nc1ccc(Cl)cc1,-2,-10,i,0.67,1.0,-6,-12,9.3,1.8,0.0
CC(=O)Oc1c(-c2ccc(Br)o2)oc2ccccc2c1=O,2,-5,i,.,.,-12,-15,0.9,3.4,0.6
CCOCCCNC(=O)CN1C(=O)COc2ccc(S(=O)(=O)N3CCCCCC3)cc21,.,-1,i,0.7,1.0,1,7,1.5,1.3,.
CN1C(=O)/C(=C/c2ccccc2OCc2cccc(F)c2)NC1=S,-5,10,.,0.78,2.0,.,.,.,.,0.1
CSC1=NCCN1C(=O)Cc1ccc(Cl)cc1,-3,7,i,0.7,0.7,-1,1,-1.6,-0.4,-0.2
Cc1ccc(S(=O)(=O)NN2C(=O)c3ccccc3NC2c2ccccc2O)cc1 (centres undefined),0,5,i,0.7,-191,16,11,-0.9,-1.1,1.3
NC(N)=NN=C1CCC(c2ccccc2)CC1 (centres undefined),-5,-1,i,0.69,1.9,11,7,-0.7,4.5,0.0
COc1ccc(C(=O)COC(=O)CCn2nnc(-c3cccc(O)c3OC)n2)cc1,.,5,.,0.73,3.2,.,.,.,.,-2.2

# Printed as active in MLL AF4-AF9 inh, among the entries above:
smiles,UCH37 inh,Ecoli rRNA inh,Ecoli rRNA inh OD600,Ecoli rRNA inh RFP,MLL AF4-AF9 inh,Bfl-1 A1 inh
Cc1c(F)cccc1NC(=O)CCCCCC1NC(=O)NC1C (centres undefined),2.2,19,7,1.4,90*,-0.2

# Not all compounds are listed, so the mix of outcomes need not match the whole.
